Screening data deposited in PubChem BioAssay by ICCB-Longwood Screening Facility, Harvard Medical School.
Sa growth inh – blocks Staphylococcus aureus growth. S. aureus RN4220 growth, OD600, 20 h, 42 °C; stronger effect = lower value. actives 0.53% (n = 170,000). relative growth, % (concentration not given with the values);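 active = growth at 42 °C up to 50% and 20 or more points under that at 30 °C, or under 10% at both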;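 also: 300 nL library stock went into each well; scaled to the means of positive and negative controls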
HCMV NEC inh – cytomegalovirus nuclear egress complex inhibition; HTRF UL50-UL53 interaction, normalized percent inhibition; inhibition, % (test concentration not listed); actives 0.15% (n = 190,000); AID 1918969;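 active = both replicates at 50% or more, plus weaker picks with an unusually low signal ratio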;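 also: stock transfer was 100 nL into about 20 µL; 0% = negative control wells and 100% = wells with untagged competitor protein; inactives centre near -12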
GIV Gai3 FP – blocks GIV peptide binding to rat Galpha-i3. P08753. percent of control (FP), % (test concentration not listed). actives 0.42% (n = 210,000). Galpha-i3/FITC-GIV peptide fluorescence polarization, 90 min; stronger effect = lower value; scaled: aluminum fluoride 0%, vehicle 100%. AID 1224905;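 active = replicate mean at 85% of control or lower, very high polarization wells dropped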;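 also: wells of about 15 µL received 100 nL stock; the first replicate is given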
Target sequence (P08753 whole entry, looked up): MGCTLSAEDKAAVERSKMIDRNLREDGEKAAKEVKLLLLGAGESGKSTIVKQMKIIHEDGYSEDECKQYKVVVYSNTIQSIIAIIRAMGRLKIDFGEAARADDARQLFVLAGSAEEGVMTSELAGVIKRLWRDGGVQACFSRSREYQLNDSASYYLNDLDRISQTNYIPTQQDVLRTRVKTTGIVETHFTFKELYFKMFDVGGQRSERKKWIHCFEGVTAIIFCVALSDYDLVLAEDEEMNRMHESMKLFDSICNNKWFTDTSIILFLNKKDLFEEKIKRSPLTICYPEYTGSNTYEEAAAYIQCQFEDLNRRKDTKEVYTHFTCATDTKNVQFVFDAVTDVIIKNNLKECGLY
Sa growth inh second temp – also measured in Sa growth inh; calls as there; relative growth, %; measured here: growth at 30 °C;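 optical density after 20 h as mean of two plates; 100% = untreated growth and lower means inhibition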
Numbers without * were called inactive; x = not tested or not shown; & = joins results of further samples.

1. CCOc1ccccc1NC(=O)c1ccc(F)c(S(=O)(=O)NCc2ccc3c(c2)OCO3)c1
2. CCc1ccc(NC(=O)CSc2nc(-c3ccccc3Cl)nc3c2Cc2c(CO)cnc(C)c2O3)cc1
3. CCCCNC(=O)CSC1=NS(=O)(=O)c2ccccc2N1CC
4. Cn1c(=O)cc(OCCCC(=O)N2CCCCCC2)c2ccccc21
5. c1ccc(-c2cnc3nonc3n2)cc1
6. Cc1cccc(N(CC(O)Cn2c3ccccc3c3ccccc32)S(=O)(=O)c2ccc(F)cc2)c1 (stereo unspecified)
7. O=C(Nc1ccc2ccccc2n1)C1CCCCC1
8. Cc1ccc2nc(N3CCN(C(=O)C4CC4)CC3)sc2c1

Assay by compound	1	2	3	4	5	6	7	8
Sa growth inh	112	93	x	102	0.8*	106	92	108
Sa growth inh second temp	94	105	x	79	1.1*	92	76	96
HCMV NEC inh	x	x	-32	x	-47	-16	-19	x
GIV Gai3 FP	109	104	103	102	x	104	100	103

9. O=C(CCc1nc(-c2cccs2)no1)Nc1cccc([N+](=O)[O-])c1
10. COc1ccc(OC)c(/C=C2\SC(=Nc3ccccc3Cl)NC2=O)c1
11. COc1ccc2oc(C(=O)OCc3cc(=O)oc4cc(C)ccc34)c(C)c2c1
12. Cc1nc2nc(SCc3c(F)cccc3Cl)nn2c(C)c1Cc1ccccc1
13. COc1ccc(CCN2C(=O)CC(C(=O)O)SC2=Nc2ccc(Cl)cc2)cc1OC (stereo unspecified)
14. COC(=O)C1CN(C(=O)c2ccc(C(C)(C)C)cc2)c2ccccc2O1 (stereo unspecified)
15. O=C(OCCNc1nc(-c2ccccc2)nc2ccccc12)c1ccncc1
16. COc1cc(CN(C(=O)c2ccccc2[N+](=O)[O-])c2ccccn2)cc(OC)c1OC

Assay by compound	9	10	11	12	13	14	15	16
Sa growth inh	91	x	86	111	x	82	83	106
Sa growth inh second temp	79	x	92	89	x	73	69	85
HCMV NEC inh	-44	-18	6	x	-1	-13	-9	-39
GIV Gai3 FP	105	98	x	103	105	100	x	103

17. Cc1cc(C)[n+]2nc(-c3ccccc3)sc2n1
18. Cn1cc(C(=O)O)ccc1=O
19. CN1C2CCC1/C(=C\c1ccccc1)C(=O)/C2=C\c1ccccc1
20. COc1cc(/C=C2\Sc3ccccc3C2=O)c(Br)cc1O
21. O=C(NCCCN1CCCCC1)c1ccc(-n2c(-c3ccccc3)cc3c2CCCC3)cc1
22. COc1ccc(N2C(=O)NC(=O)/C(=C\c3ccc(OCc4ccc(C(=O)O)cc4)c(OC)c3)C2=O)cc1
23. CC(C)NC(=O)c1ncoc1-c1cccs1
24. O=c1oc2ccccc2n1CNc1ccccn1

Assay by compound	17	18	19	20	21	22	23	24
Sa growth inh	73	97	106	x	117	x	103	103
Sa growth inh second temp	80	73	75	x	90	x	94	93
HCMV NEC inh	-34	-1	x	-12	x	-12	-18	x
GIV Gai3 FP	x	103	104	100	103	106	109	103

Gathered by group: the compounds so far with a Cl atom.
2. CCc1ccc(NC(=O)CSc2nc(-c3ccccc3Cl)nc3c2Cc2c(CO)cnc(C)c2O3)cc1
10. COc1ccc(OC)c(/C=C2\SC(=Nc3ccccc3Cl)NC2=O)c1
12. Cc1nc2nc(SCc3c(F)cccc3Cl)nn2c(C)c1Cc1ccccc1
13. COc1ccc(CCN2C(=O)CC(C(=O)O)SC2=Nc2ccc(Cl)cc2)cc1OC (stereo unspecified)

Assay by compound	2	10	12	13
Sa growth inh	93	x	111	x
Sa growth inh second temp	105	x	89	x
HCMV NEC inh	x	-18	x	-1
GIV Gai3 FP	104	98	103	105

Further entries.
25. CCCn1cc(S(=O)(=O)c2cc(C)ccc2C)c(=O)c2cc(F)c(N3CCOCC3)cc21
26. Cc1c(Cl)cccc1NC(=S)N(Cc1ccco1)C1CCN(C(C)C)CC1
27. COc1cccc(C2C(C(=O)Nc3ccccc3)=C(C)Nc3nc(-c4ccccc4)nn32)c1OC (stereo unspecified)
28. O=C(O)CC1(CC(=O)Nc2ccc3c(c2)OCO3)CCCC1
29. CCc1ccnc(NC(=O)Nc2ccccc2C(C)(C)C)c1
30. CC1CCCN(C(=O)COC(=O)C2=NN(c3ccccc3)C(=O)CC2)C1 (stereo unspecified)
31. CCOC(=O)c1c(NC(=O)CSc2nnc(-c3ccccc3)o2)sc2c1CCCC2
32. Cn1c(SCC(N)=O)nnc1-c1ccc(S(=O)(=O)N2CCCC2)cc1

Assay by compound	25	26	27	28	29	30	31	32
Sa growth inh	83	139	96	118	100	93	127	104
Sa growth inh second temp	82	82	97	98	90	92	77	97
HCMV NEC inh	x	x	7	-3	-32	-9	-12	-26
GIV Gai3 FP	106	102	106	108	104	x	96	103

33. CCn1c(O)c(C=Nc2cccc3c2C(=O)NC3=O)c(=O)n(CC)c1=S
34. O=C(NCCCN1CCCC1)c1ccc(CS(=O)Cc2ccccc2Cl)o1 (stereo unspecified)
35. CCC(C)NC(=S)N(C)N (stereo unspecified)
36. O=C(NCC(c1ccc2c(c1)OCO2)N1CCN(c2ccccc2)CC1)C(=O)Nc1ccccc1 (stereo unspecified)
37. O=C(Cc1n[nH]c(=O)c2ccccc12)Nc1ccc2c(c1)OCCO2
38. Cc1c(C(=O)Nc2cccc(-c3nc4ccccc4s3)c2)oc2ccc(F)cc12
39. CCOc1ccc(CCNC(=O)c2cccc(-n3c(C)nc4cccnc43)c2C)cc1
40. Clc1ccc(Cl)c(Sc2ncnc3ccsc23)c1

Assay by compound	33	34	35	36	37	38	39	40
Sa growth inh	103	98	96	88	93	98	112	91
Sa growth inh second temp	95	74	93	82	94	87	95	95
HCMV NEC inh	-27	-31	-8	x	-2	2	x	7
GIV Gai3 FP	x	107	x	96	x	104	108	106

41. COc1cc(OC)c(NC(=O)Nc2nnc(N3CCCC3)s2)cc1Cl
42. COc1ccc(NCn2c3ccccc3c3ccccc32)cc1
43. Cc1cc(C)n(-c2nc3cc(Cl)ccc3nc2Nc2ccc(C)c(F)c2)n1
44. Cc1nc2c(c(SCC(=O)Nc3ccccc3C(F)(F)F)n1)CCC2
45. COc1ccccc1CC1(C)NC(=O)N(CC(=O)c2cc(C)n(Cc3ccco3)c2C)C1=O (stereo unspecified)
46. CCc1nnc2sc(-c3c[nH]c4ccccc34)nn12
47. CC1=C(C(=O)OC2CCCCCC2)C(c2ccccc2Cl)CC(=O)N1 (stereo unspecified)
48. COc1ccc(C2=NOC(C(=O)NCc3ccccc3)C2)cc1 (stereo unspecified)

Assay by compound	41	42	43	44	45	46	47	48
Sa growth inh	75	105	117	110	106	x	102	93
Sa growth inh second temp	82	78	89	87	92	x	91	100
HCMV NEC inh	-29	-24	0	-10	-11	-2	-6	x
GIV Gai3 FP	108	x	103	103	x	105	106	99

49. COC(=O)c1ccc(COc2ncnc3ccccc23)o1
50. O=C(c1ccc2c(c1)OCCO2)N(Cc1cccnc1)c1nc2c(F)cccc2s1
51. O=C(NC1CCCCC1)N1CCc2cc3ccccc3nc21
52. Cn1c(=O)c2sccc2n2c(SCc3cccc(Br)c3)nnc12
53. O=C(C1CCN(c2ncnc3c2sc2cccc(F)c23)CC1)N1CCN(Cc2ccccc2)CC1
54. Cc1ccc(/C=C(\C#N)C(=O)C(C)(C)C)o1
55. CCCCN1C(=O)C(NC(=O)c2cccnc2)(C(F)(F)F)C2=C1CC(C)(C)CC2=O (stereo unspecified)
56. Cc1ccc(NC(=O)Cn2c(SCc3ccc(F)cc3)nc3cccnc32)cc1F

Assay by compound	49	50	51	52	53	54	55	56
Sa growth inh	105	36	x	x	x	100	100	87
Sa growth inh second temp	98	28	x	x	x	97	103	81
HCMV NEC inh	-9	x	-12	-6	18	-65	12	x
GIV Gai3 FP	x	102&104	110	97	99	x	106	98

57. COc1ccc(Cl)c2sc(N3CCN(C(=O)c4ccco4)CC3)nc12
58. CCN(C(=O)CSc1ncccc1C(=O)O)c1cccc(C)c1
59. COC(=O)c1ccccc1NC(=O)CSc1cc(-c2ccccc2)nc(C)n1
60. Cc1ccc(-c2ccc(=O)n(CC(=O)NCc3ccc(F)cc3)n2)cc1
61. COC(=O)NC1C2CC3CC(C2)CC1C3 (stereo unspecified)
62. CCCn1c(CCC(=O)N2CCc3ccccc3C2)nc2cccnc21
63. O=C(CSc1nc2ccncc2[nH]1)Nc1ccccc1C(F)(F)F
64. Cn1c(=O)n(C)c2cc(NC(=O)C(F)(F)F)ccc21

Assay by compound	57	58	59	60	61	62	63	64
Sa growth inh	114	111	103	122	86	96	108	108
Sa growth inh second temp	91	87	92	76	101	89	87	79
HCMV NEC inh	-4	4	14	x	-20	x	-5	12
GIV Gai3 FP	107	103	104	101	104	106	99	101

65. CC1CCN(S(=O)(=O)c2cc(C(=O)N3CCN(c4ccccc4F)CC3)n(C)c2)CC1
66. COC(=O)c1ccc(NC(=O)CCCC(=O)OCC(=O)c2ccc(Cl)cc2)cc1
67. CC1CCCC(NC(=O)COC(=O)c2ccc(O)cc2)C1C (stereo unspecified)
68. CC1=C(C(=O)OCC2CCCO2)C(c2ccccc2OCc2ccccc2)C2=C(CC(C)(C)CC2=O)N1 (stereo unspecified)
69. Cc1cccc(NC(=O)C2CCN(S(=O)(=O)c3c(C)[nH]c(C)c3C(=O)N3CCCCC3)CC2)n1
70. COC(=O)c1cc(SC#N)ccc1N
71. CN(C)S(=O)(=O)Nc1cccc(-c2cn3c(n2)SCC3)c1
72. CCOc1ccc(C2=NC(c3ccc(OC)cc3)=Nc3ccc(C)cc3N2)cc1

Assay by compound	65	66	67	68	69	70	71	72
Sa growth inh	99	89	108	x	x	47	101	x
Sa growth inh second temp	87	81	107	x	x	65	90	x
HCMV NEC inh	-26	-34	15	-28	-10	-22	2	-8
GIV Gai3 FP	95&106	102	x	105	103	104	106	101

73. COc1ccc(-n2c(Cc3cc(=O)[nH]c(=O)[nH]3)nnc2SCC(N)=O)cc1
74. Cc1ccccc1NC(=O)Nc1sc(NS(=O)(=O)c2ccccc2)nc1C
75. O=C(Nc1cc(Cl)cc(Cl)c1)C1CCCC1
76. O=c1cccc(-c2ccc(O)cc2)o1
77. Cc1nn(C)c2c1c(C(F)(F)F)cc(=O)n2Cc1ccc(Br)cc1F
78. CCC(C)S(=O)(=O)c1oc(-c2ccc(F)cc2)nc1S(=O)(=O)c1ccc(C)cc1 (stereo unspecified)
79. Cc1ncoc1C(=O)Nc1ccc(C(C)C)cc1
80. OC(CN1CCN(c2ccc(C(F)(F)F)cn2)CC1)c1ccccc1 (stereo unspecified)

Assay by compound	73	74	75	76	77	78	79	80
Sa growth inh	79	106	114	104	72	80	96	93
Sa growth inh second temp	95	88	97	81	92	61	88	94
HCMV NEC inh	3	x	-6	5	x	-15	-20	-5
GIV Gai3 FP	101	97	107	100	97	99	103	94

81. CCc1ccc(CNC(=O)COc2cc(=O)n(CC)c3ccccc23)cc1
82. Cc1noc2c1C(c1ccccc1)C1=C(CC(c3ccccc3)CC1=O)N2 (stereo unspecified)
83. Cc1ccc(N2CCN(S(=O)(=O)c3nnc(NC(=O)c4ccc(C(C)C)cc4)s3)CC2)cc1
84. CCOc1ccc(-c2nc(CSc3nc4ccccc4c(=O)n3C)c(C)o2)cc1OC
85. O=C(NCC1CC1)c1ccccc1NS(=O)(=O)c1cc(Cl)sc1Cl
86. CCc1nc(SCC(=O)N2c3ccccc3Sc3ccccc32)n[nH]1
87. CC(C)(C)n1ncc2c(=O)n(NC(=O)/C=C/c3ccccc3)cnc21
88. CCc1ccc(NC(=O)Cn2c(C(=O)OC)cc3oc(C)cc32)cc1

Assay by compound	81	82	83	84	85	86	87	88
Sa growth inh	63	x	96	x	82	102	106	102
Sa growth inh second temp	36	x	89	x	64	103	101	100
HCMV NEC inh	1	-15	-3	-23	-19	-3	-7	7
GIV Gai3 FP	102	100	106	102	103	101	107	103
